Sa helicase inh = inhibitors of S. aureus replicative helicase, primary screen, biochemical, fluorescence unwinding readout; replicative DNA helicase (DnaC/DnaB), Staphylococcus aureus; purified S. aureus helicase, fluorescence unwinding assay; about half of the hits fall short of the stated cut; inhibition, %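 (tested at about 80 µM)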; actives 0.05% (n = 120,000); AID 485395, 2010;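 active = both duplicates at 50% or more, or one of them with a favoured structure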;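 also: 0% = mean of negative control wells and 100% = mean of positive control wells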
MgrA DNA FP = S. aureus MgrA activity modulators, primary screen, biochemical, S. aureus Newman, fluorescence polarization; MgrA-DNA binding; inhibition, %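 (about 10 µg/mL by stock and volumes)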; actives 0.13% (n = 84,000); AID 602314, 2012;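 active = above 50% in either of two replicates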;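 also: 0% = protein plus DNA without compound and 100% = DNA alone without protein; higher means less MgrA bound to DNA so lower polarization; one replicate is shown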
* = called active by the depositor. Not all compounds are listed; the hit share may differ from the screen's.

What do the screens show for `CSc1nsc(SCC(=O)c2ccccc2)n1`?
Sa helicase inh: 11; MgrA DNA FP: 5.3

What do the screens show for `CC(=O)Oc1cccc(C(=O)N(C(C)C)C(C)C)c1`?
Sa helicase inh: 6; MgrA DNA FP: 2.6

How did C=CCn1c(COc2ccc(F)cc2)nnc1SCC(=O)c1ccc[nH]1 do in these assays?
Sa helicase inh: -5

What do the screens show for `O=C1Nc2cc(C(=O)NC3CC3)ccc2S/C1=C\c1ccccc1`?
Sa helicase inh: 4; MgrA DNA FP: 0.6

Results for CC(=O)OC(C(=O)c1ccccc1)c1ccccc1 (configuration not stated) ?
Sa helicase inh: 2; MgrA DNA FP: -2.1

Results for COc1ccc(OC)c(-c2noc(NCCc3ccc(Cl)cc3)n2)c1 ?
Sa helicase inh: 7; MgrA DNA FP: 4.0

What do the screens show for `COc1ccc(NC(=O)C2C3C=CC4(O3)C2C(=O)N(Cc2cccnc2)C4C(=O)NC2CCCCC2)cc1` (configuration not stated)?
Sa helicase inh: -31

How did CC(=O)SC1CC(=O)N(c2ccc(F)c(F)c2F)C1=O (configuration not stated) do in these assays?
MgrA DNA FP: -2.4

How did CN(C(=O)CSc1nc(-c2ccco2)cc(C(F)(F)F)n1)c1ccccc1 do in these assays?
Sa helicase inh: 3; MgrA DNA FP: -0.6

Results for COc1ccc(C2C(C#N)=C(N)Oc3c2ccc(=O)c2c(C)oc(C)c32)cc1 (configuration not stated) ?
Sa helicase inh: 0

Results for O=C(NC(CC(=O)N1CCN(C(=O)c2ccco2)CC1)c1ccccc1)c1ccccc1Cl (configuration not stated) ?
Sa helicase inh: 7

Results for CCc1ccc(NC(=O)COC(=O)CC2(CC(=O)N3CCOCC3)CCCCC2)cc1 ?
Sa helicase inh: 6

How did O=C(OCC(=O)N1CCN(S(=O)(=O)c2ccc3ccccc3c2)CC1)c1n[nH]c2ccccc12 do in these assays?
Sa helicase inh: 16

Results for O=S(=O)(Cc1cccc(C(F)(F)F)c1)N1CCOCC1 ?
MgrA DNA FP: -1.8

What do the screens show for `COc1ccc(OCC(O)CNC(=O)c2ccccc2)cc1` (configuration not stated)?
MgrA DNA FP: -0.9

What do the screens show for `Cc1noc(C)c1CC(C#N)(Cc1c(C)noc1C)C(=O)Nc1ccccc1`?
Sa helicase inh: -5

What do the screens show for `O=C(O)c1ccccc1C(=O)NC1CCN(c2nccc(C(F)(F)F)n2)CC1`?
MgrA DNA FP: -2.8

Results for O=c1[nH]c(=O)n(S(=O)(=O)c2ccc(F)cc2)cc1F ?
Sa helicase inh: 8

Results for CC1(c2ccc(Br)cc2)NC(=O)CS1 (configuration not stated) ?
MgrA DNA FP: -5.8

What do the screens show for `Cc1nonc1NC(=O)c1cccs1`?
Sa helicase inh: -2; MgrA DNA FP: 0.6

Results for O=C(O)c1ccccc1SCc1cc(=O)n2ccsc2n1 ?
Sa helicase inh: 3

What do the screens show for `Cn1nc(C(=O)NCc2cccnc2)c2ccccc2c1=O`?
Sa helicase inh: 7

Results for O=C(COc1ccc(S(=O)(=O)NC2CCCCC2)cc1Cl)NCc1ccccn1 ?
Sa helicase inh: 9; MgrA DNA FP: -1.6

How did CCCN1C(=O)C(C#N)=C(C)/C(=C\c2ccc(-c3ccc(Br)cc3)o2)C1=O do in these assays?
Sa helicase inh: -3

How did CCCCNc1ncnc2c1nnn2Cc1ccccc1Cl do in these assays?
Sa helicase inh: 15; MgrA DNA FP: -4.3

Results for CCO/C=C1\SC(=S)N(CCc2ccc(OC)c(OC)c2)C1=O ?
MgrA DNA FP: 9.4

Results for Cc1[nH]c2ccccc2c1C(=O)CC#N ?
Sa helicase inh: 9; MgrA DNA FP: -0.1

How did Cc1ccc(C)c(NC(=O)CSc2ncnc3sc(C)c(C)c23)c1 do in these assays?
Sa helicase inh: 1; MgrA DNA FP: -0.6

What do the screens show for `Cc1ccc(CNc2nc3c(c(=O)[nH]c(=O)n3C)n2Cc2ccccc2C)cc1`?
Sa helicase inh: 15; MgrA DNA FP: 1.5

How did O=C(O)COCC(=O)Nc1nc(-c2ccc(F)c(F)c2)cs1 do in these assays?
MgrA DNA FP: -3.1

Results for CC(=O)Nc1ccc(-c2nnc3c4ccccc4c(C)nn23)cc1 ?
Sa helicase inh: 13

Results for O=C1CC(c2ccccc2)CC(O)=C1C=NCc1ccccc1 (configuration not stated) ?
Sa helicase inh: -3; MgrA DNA FP: -1.4

How did COc1ccc(S(=O)(=O)N2CCCCCC2)cc1C(=O)NC1CCCCC1 do in these assays?
Sa helicase inh: -2

What do the screens show for `CNc1nc(-c2ccccc2)cc(-c2ccccc2)n1`?
Sa helicase inh: 11; MgrA DNA FP: 1.8

Results for O=C1CS(=O)(=O)CN1c1ccc(Cl)c(Cl)c1 ?
MgrA DNA FP: -1.2

How did COc1cc2ccccc2cc1C(=O)Nc1ccc2c(c1)OCCO2 do in these assays?
Sa helicase inh: 12; MgrA DNA FP: -0.1

Results for Cc1nn(-c2ccccc2)c(C)c1CN(C)CC(=O)NC1CCS(=O)(=O)C1 (configuration not stated) ?
Sa helicase inh: -7

What do the screens show for `CC1CC(=O)c2cc(Cl)ccc2S1` (configuration not stated)?
Sa helicase inh: -38

Results for C=CCN1C(=O)C(CC(=O)NCC)SC1=Nc1ccc(S(N)(=O)=O)cc1 (configuration not stated) ?
Sa helicase inh: 12; MgrA DNA FP: -0.3

What do the screens show for `CCOC(=O)C1=C(CC)Nc2ccccc2N=C1NC(=O)CCNC(C)=O`?
Sa helicase inh: -17

Results for CCOC(=O)C(C#N)C1(Cc2ccccc2)CCOC(C)(C)C1 (configuration not stated) ?
Sa helicase inh: 2

How did CC12CCC(=O)N1C(C(=O)O)CS2 (configuration not stated) do in these assays?
Sa helicase inh: -12

Results for COc1cnn(C2CCCCC2)c(=O)c1Cl ?
Sa helicase inh: 2; MgrA DNA FP: 1.5

What do the screens show for `NS(=O)(=O)c1ccc2nc(NC(=O)c3cc(-c4ccccc4)nc4ccccc34)sc2c1`?
MgrA DNA FP: 2.4

How did O=C(COC(=O)c1ccc(Br)o1)NCC1CCCCC1 do in these assays?
Sa helicase inh: 15; MgrA DNA FP: -1.2

Results for O=C1c2ccc(-c3ccc4c(c3)C(=O)N(CCO)C4=O)cc2C(=O)N1CCO ?
Sa helicase inh: 14; MgrA DNA FP: -1.8

Results for CC(C)NC(=O)CSc1nc2ccccc2n1CC(=O)N1CCOCC1 ?
Sa helicase inh: 0; MgrA DNA FP: -0.4

What do the screens show for `O=C(CO)N/N=C\c1c(F)cccc1Cl`?
Sa helicase inh: 4; MgrA DNA FP: 1.4

Gathered by group: those above with a CF3 group
How did CN(C(=O)CSc1nc(-c2ccco2)cc(C(F)(F)F)n1)c1ccccc1 do in these assays?
Sa helicase inh: 3; MgrA DNA FP: -0.6

Results for O=S(=O)(Cc1cccc(C(F)(F)F)c1)N1CCOCC1 ?
MgrA DNA FP: -1.8

What do the screens show for `O=C(O)c1ccccc1C(=O)NC1CCN(c2nccc(C(F)(F)F)n2)CC1`?
MgrA DNA FP: -2.8

Other compounds.
Results for NC(=S)c1cccc(Br)c1 ?
Sa helicase inh: -6

Results for CCN1C(=O)/C(=c2\s/c(=C3\Sc4ccc(OC)cc4N3C)c(=O)n2Cc2ccccc2)N(C)C1=S ?
Sa helicase inh: 2; MgrA DNA FP: -1.5

Results for C=C1SC(Nc2cc(C)c(C)cc2C)=NC1(C)C ?
MgrA DNA FP: 0.5

What do the screens show for `O=C(NC1(C(F)(F)F)Oc2ccccc2O1)Sc1ccccc1`?
Sa helicase inh: 13; MgrA DNA FP: 3.8

Results for C/C(=N\O)c1ccc(Sc2ccccc2)cc1 ?
MgrA DNA FP: -0.1

Results for CN(C(=O)N1CCN(c2ccccn2)CC1)c1ccccc1 ?
Sa helicase inh: 1; MgrA DNA FP: 0.8

Results for CCOc1ccc2nc(NC(=O)c3cccn(OCc4ccccc4)c3=O)sc2c1 ?
Sa helicase inh: 1; MgrA DNA FP: 1.1

How did N#Cc1c(C(F)(F)F)cc(-c2cccs2)oc1=S do in these assays?
Sa helicase inh: -3; MgrA DNA FP: 12

What do the screens show for `Cn1c(=N)sc2ccccc21`?
Sa helicase inh: -1

How did Cc1ccc(CCNC(=O)c2cc(C)[nH]n2)cc1 do in these assays?
Sa helicase inh: -21

What do the screens show for `O=S(=O)(Nc1ccccc1C(F)(F)F)c1ccc2c(c1)CCO2`?
MgrA DNA FP: -1.9

Results for Cc1cc(C(=O)Nc2cccc(C(F)(F)F)c2)n[nH]1 ?
Sa helicase inh: -16

Results for C=Cc1ccc2c(c1)N(C)C(=C)S2 ?
Sa helicase inh: 9; MgrA DNA FP: 7.0

Results for CC12CCC(CC1=NNC(=O)CSc1nc3ccccc3o1)C2(C)C (configuration not stated) ?
Sa helicase inh: 16

How did NS(=O)(=O)c1ccc(Sc2ccc(Cl)cc2)c([N+](=O)[O-])c1 do in these assays?
MgrA DNA FP: -3.3

How did CCc1ccc2c(CC(=O)O)coc2c1 do in these assays?
Sa helicase inh: -6

Results for COc1cc(OC)c(NS(=O)(=O)c2cc(-c3cc(C)no3)ccc2C)cc1Cl ?
Sa helicase inh: -1

How did Cc1[nH]c2ccccc2c1-c1nc2ccccc2[nH]c1=O do in these assays?
Sa helicase inh: -2

What do the screens show for `COc1ccc(/C=C2\C(=N)N3N=C(N4CCOCC4)SC3=NC2=O)cc1`?
Sa helicase inh: -6

What do the screens show for `CN1CCN(S(=O)(=O)c2ccc(NC(=O)c3ccc(Br)s3)cc2)CC1`?
Sa helicase inh: -4; MgrA DNA FP: -0.5

Results for COC(=O)c1c(O)cc(=O)[nH]c1N ?
Sa helicase inh: -11

How did COc1ccc(-c2nn(-c3ccccc3)cc2/C=C\C(N)=O)cc1 do in these assays?
Sa helicase inh: 16

What do the screens show for `Cn1c2c(c(=O)n(C)c1=O)C(=O)CN2c1ccccc1`?
Sa helicase inh: 2; MgrA DNA FP: -2.5

What do the screens show for `O=C(NNc1ccc(-c2csnn2)cc1)c1ccccc1C(F)(F)F`?
MgrA DNA FP: -2.2

Fetched one by one from the entries so far:
How did COc1ccc(-c2nn(-c3ccccc3)cc2/C=C\C(N)=O)cc1 do in these assays?
Sa helicase inh: 16

What do the screens show for `CN1CCN(S(=O)(=O)c2ccc(NC(=O)c3ccc(Br)s3)cc2)CC1`?
Sa helicase inh: -4; MgrA DNA FP: -0.5

What do the screens show for `COc1ccc(/C=C2\C(=N)N3N=C(N4CCOCC4)SC3=NC2=O)cc1`?
Sa helicase inh: -6

Results for C=Cc1ccc2c(c1)N(C)C(=C)S2 ?
Sa helicase inh: 9; MgrA DNA FP: 7.0

Carrying on:
What do the screens show for `O=C1COc2ccc(C(=O)CSC(=S)N3CCCC3)cc2N1`?
Sa helicase inh: 7

What do the screens show for `Cc1ccc(S(=O)(=O)C2(C(=O)N3CCN(c4cccc(Cl)c4)CC3)CC2)cc1`?
Sa helicase inh: -26

What do the screens show for `Clc1ccc(-c2nc(N3CCCCC3)c3ccccc3n2)cc1`?
Sa helicase inh: -5; MgrA DNA FP: 0.9

What do the screens show for `COCC(=O)Nc1nc(-c2ccccc2)ns1`?
Sa helicase inh: 6

Results for CCSc1nc2sc3c(c2c(=O)n1CC)CCCC3 ?
Sa helicase inh: -7; MgrA DNA FP: 5.4

Results for O=C(Nc1ccc2c(c1)OCO2)c1nn2c(c1Br)NC(c1cccs1)CC2C(F)(F)F (configuration not stated) ?
MgrA DNA FP: 3.3

How did CC(C)(C)NS(=O)(=O)c1ccc(N2CCCCS2(=O)=O)cc1 do in these assays?
Sa helicase inh: 2

Results for O=[N+]([O-])c1c(Cl)cc(O)c2c1C1C=CCC1C(c1ccc(Cl)cc1)N2 (configuration not stated) ?
MgrA DNA FP: 6.1

How did Nc1cccc(F)c1C(=O)NCc1cccs1 do in these assays?
MgrA DNA FP: 0.6

What do the screens show for `CCCCNC(=O)c1cc(C)on1`?
Sa helicase inh: 3

How did COC(=O)c1c2c(nc3ccccc13)CCC2 do in these assays?
Sa helicase inh: -13

How did O=C(NCc1ccc2c(c1)OCO2)c1cccnc1Oc1ccccc1 do in these assays?
MgrA DNA FP: 1.8

How did COc1ccc2c(=O)c3c(oc2c1)C(=O)N(CCN1CCOCC1)C3c1ccccc1 (configuration not stated) do in these assays?
Sa helicase inh: 0

Results for Cc1noc(C)c1CSc1ccccc1C(=O)OCC(=O)NC1(C#N)CCCCC1 ?
Sa helicase inh: -6

How did Cc1cc2oc(=O)cc(-c3cc4ccccc4o3)c2cc1OCC#N do in these assays?
Sa helicase inh: 3

How did CCCc1c(C)c2ccc(OCC(=O)OC)cc2oc1=O do in these assays?
Sa helicase inh: 21

Results for O=S(=O)(c1ccc(Oc2ccc(S(=O)(=O)N3CCOCC3)cc2)cc1)N1CCOCC1 ?
Sa helicase inh: 21

Results for N#CCC1C(=O)Nc2ccccc21 (configuration not stated) ?
Sa helicase inh: -6

Results for Cn1ncc(C(=O)Nc2ccc(OC(F)(F)F)cc2)c1-n1cccc1 ?
MgrA DNA FP: 0.9

What do the screens show for `Cc1ccc(NS(=O)(=O)c2cc(C(F)(F)F)cc(C(F)(F)F)c2)c(N)c1`?
MgrA DNA FP: -2.7

Results for CCCCN(C)S(=O)(=O)c1ccc(C)c(-c2nnc3c4ccccc4c(C)nn23)c1 ?
Sa helicase inh: 16; MgrA DNA FP: -2.9

Compounds from the list above that contain a COOH group:
What do the screens show for `O=C(O)c1ccccc1C(=O)NC1CCN(c2nccc(C(F)(F)F)n2)CC1`?
MgrA DNA FP: -2.8

Results for O=C(O)c1ccccc1SCc1cc(=O)n2ccsc2n1 ?
Sa helicase inh: 3

How did O=C(O)COCC(=O)Nc1nc(-c2ccc(F)c(F)c2)cs1 do in these assays?
MgrA DNA FP: -3.1

How did CC12CCC(=O)N1C(C(=O)O)CS2 (configuration not stated) do in these assays?
Sa helicase inh: -12

How did CCc1ccc2c(CC(=O)O)coc2c1 do in these assays?
Sa helicase inh: -6
